Source: PubChem
PMP22 txn = Cell-based coincidence reporter assay to measure PMP22 gene transcription in S16 Pmp22-F2sN cells - Primary screen; AID 1508649, 2021; S16 Pmp22-F2sN Schwann cells (luciferase reporters placed in the Pmp22 gene), FLuc/NLuc coincidence luminescence, 24 h; Potency, µM (doses to about 57.5 µM), inactives show at the top dose activity change, negative = inhibition, actives largely listed as inhibitors; 43,000 compounds, 2% hits; active = clear falling dose curves in both reporters; inconclusive = both reporters move, but less clearly or upward; inactive = either reporter flat; the % is the NLuc reporter signal; further: on the % scale 0 is the no-effect control and ±100 the full control effect; some results filed as inactive show a strong effect at the top dose
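S16(c9) Schwann cells with FLuc/NLuc coincidence reporter in the Pmp22 3' UTR; compounds pin-transferred, 24 h at 37C. Dual-luciferase read: FLuc first, then NLuc after Stop&Glo, each 10 min at room temperature.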
HTT promoter inh = Primary qHTS for Identification of Small Molecule Inhibitors of Huntingtin Promoter Activity; Potency, µM (highest dose often 57.5 µM), for inactives: top-dose activity change, negative = inhibition, usual class: inhibitors; HEK293 HTT promoter firefly luciferase reporter (activity 0% = vehicle and -100% = no light), 24 h; AID 1508623, 2021; 48,000 compounds, 0.93% hits; active means well fitted inhibition curve with a large enough effect; inconclusive means small, poorly fitted or top-dose-only effect; inactive means no such curve, though single readings can be large or run the other way; further: nearly all actives have a fitted effect of over 50% in size
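HEK293 luciferase promoter-reporter cells (2,500/well) plated 24 h, then compounds added at up to 57.5 uM final for 24 h at 37 °C. Firefly luminescence by Dual-Glo, normalized to vehicle (0%) and zero RLU (-100%).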
Numbers without * were called inactive; ? = inconclusive; · = no result given; & = joins results of further samples; [ ] = another dose, or the depositor's remark. Potency means the concentration at half of the fitted maximal effect.

nr	molecule	HTT promoter inh	PMP22 txn
1	CCOC(=O)c1c(NC(=O)COc2ccc(Cl)cc2Cl)sc2c1CCCCC2	-1%	6%
2	CC(C)NC(=O)C1CCC(Cn2c(=O)c3sccc3n(CC(=O)Nc3ccccc3)c2=O)CC1 (stereo not given)	-12%	?
3	Cc1ccc(Nc2nc(C)cc(C)n2)c(C(=O)O)c1	-11%	?
4	COc1ccc(-c2noc(-c3nnn(-c4cc(C)ccc4C)c3N)n2)cc1	4%	5%
5	CCOc1ccccc1NC(=O)CCn1nc(C)c(S(=O)(=O)N2CCCCC2)c1C	-28%	-9%
6	c1ccc(CSc2nc3ncccc3[nH]2)cc1	40%[activator]	5%
7	O=C(Cn1c(=O)c2cccn2c2ccccc21)NCc1ccccc1F	1%	2%
8	CS(=O)(=O)N1CCc2cc(C(=O)NCc3ccccc3)ccc21	-6%	-18%
9	CCCC(=O)Nc1nnc(S(=O)(=O)N(C)c2ccccc2)s1	-12%	-11%
10	Cc1oc2ccc(O)c(CN3CCCC(C)C3)c2c1C(=O)Nc1ccccc1 (stereo not given)	-10%	-19%
11	COc1ccccc1CNC(=O)CCCn1c(=O)c2ccccc2n(CC(=O)Nc2c(C)cc(C)cc2C)c1=O	-1%	-54%
12	CCC(C)NC(=O)c1ccc2nc(CCc3ccccc3)oc2c1 (stereo not given)	27%	-20%

Fetched one by one from above:
nr	molecule	HTT promoter inh	PMP22 txn
12	CCC(C)NC(=O)c1ccc2nc(CCc3ccccc3)oc2c1 (stereo not given)	27%	-20%
4	COc1ccc(-c2noc(-c3nnn(-c4cc(C)ccc4C)c3N)n2)cc1	4%	5%
11	COc1ccccc1CNC(=O)CCCn1c(=O)c2ccccc2n(CC(=O)Nc2c(C)cc(C)cc2C)c1=O	-1%	-54%
6	c1ccc(CSc2nc3ncccc3[nH]2)cc1	40%[activator]	5%
3	Cc1ccc(Nc2nc(C)cc(C)n2)c(C(=O)O)c1	-11%	?
5	CCOc1ccccc1NC(=O)CCn1nc(C)c(S(=O)(=O)N2CCCCC2)c1C	-28%	-9%
2	CC(C)NC(=O)C1CCC(Cn2c(=O)c3sccc3n(CC(=O)Nc3ccccc3)c2=O)CC1 (stereo not given)	-12%	?

Further entries follow.
nr	molecule	HTT promoter inh	PMP22 txn
13	Cc1ccccc1CN1C(=O)c2ccccc2S(=O)c2ccc(C(=O)NCc3ccccc3)cc21 (stereo not given)	-29%	4%
14	COc1cccc(-c2cc(C(=O)NCCc3ccc(C)cc3)[nH]n2)c1	-3%	15%
15	CC(C)(C)c1ccc(S(=O)(=O)c2cn(CC(=O)Nc3ccccc3)c3ccccc3c2=O)cc1	-28%	-8%
16	O=c1cc(-c2ccccc2)c2ccc3c(c2o1)CN(Cc1cccc(Cl)c1)CO3	-23%	?
17	Cc1cccc(NCc2nc3ccccc3n2CCOc2ccccc2C)c1	-27%	?
18	CCOc1ccc(NC(=O)c2sc3nc4n(c(=O)c3c2C)CCC4)cc1	5%	-17%
19	CS(=O)(=O)c1ncc(Cl)c(C(=O)N2CCN(c3cccc(Cl)c3)CC2)n1	?	?
20	Cc1ccc2nc(COc3ccccc3NC(=O)Nc3ccc(F)c(Cl)c3)cc(=O)n2c1	13%	?
21	Cc1cc(=O)[nH]c2nnc(SCc3ccc(F)cc3)n12	-14%	13%
22	O=C1c2ccccc2-[n+]2ccc3c([nH]c4ccccc43)c21	?	·
23	CC(=O)N1CCc2c(sc3c2c(=O)n(Cc2ccccc2)c(=O)n3Cc2ccc(C)cc2)C1	-5%	-1%
24	CC(C)c1ccc(NC(=O)CSC2=Nc3ccccc3C3=NC(CC(=O)NCc4cccs4)C(=O)N23)cc1 (stereo not given)	-16%	-5%
25	Cc1cc(C)cc(NC(=O)CSc2nc(=O)n(Cc3ccccn3)c3c2CCC3)c1	3%	?
26	COc1cccc(CNC(=O)c2cc(-c3ccc(Cl)cc3)n[nH]2)c1	10%	4%
27	CCOc1cc(C#N)c(-n2nnc3c(sc4nc(C)cc(C)c43)c2=O)cc1OCC	-3%	-16%
28	CCc1nnc2c(Nc3cc(OC)c(Cl)cc3OC)nc3ccccc3n12	-7%	17%
29	COc1ccc(CNC(=O)c2sc3nc4n(c(=O)c3c2C)CCCCC4)cc1	1%	30%
30	CCCCN(CC)CCCNC(=O)c1nn(-c2ccc(OC)cc2)c(=O)c2c1c1ccccc1n2C	-5%	7%
31	CCOC(=O)c1ccc(NC(=O)Cn2cc(S(=O)(=O)Cc3ccccc3F)c3ccccc32)cc1	?	-10%
32	Cc1ccsc1CN(C(=O)c1ccc(Br)cc1)C1CCS(=O)(=O)C1 (stereo not given)	-15%	-11%
33	CCOC(=O)c1cnc(NCc2ccc(OC)cc2OC)c2ccccc12	?	-2%
34	Cc1csc2nc(COC(=O)c3ccccc3NC(=O)c3ccc(C(C)(C)C)cc3)cc(=O)n12	-23%	-11%
35	COc1ccc(Cn2c(SCc3ccc(C(=O)NCc4cccs4)cc3)nc3cccnc32)cc1	?	-6%
36	CCOc1ccc(-c2cc(NC(=O)c3c(F)cccc3F)c(C(=O)OC)s2)cc1	8%	-31%
37	Cc1ccc(-n2nc(C)c3c(C)c(CCC(=O)NC(C)c4ccccc4)c(C)nc32)cc1 (stereo not given)	-5%	?
38	Cc1ccc(NC(=O)CCS(=O)(=O)c2ccc3nc(C)sc3c2)cc1	-5%	2%
39	CCCCOc1ccc(C(=O)NCCc2csc3nc(-c4ccccc4F)nn23)cc1	?	-17%
40	Cc1ccc(C)c(N2CCN(C(=O)C3CCN(c4nc(-c5ccc(C(C)C)cc5)no4)CC3)CC2)c1	0.11µM*	-22%
41	CCC[C@@H]1C[C@@H](C(=O)N[C@@H]([C@H]2O[C@H](SC)[C@H](O)[C@@H](O)[C@H]2O)[C@@H](C)O)N(C)C1	1%&9%	·
42	CCOc1ccc(Nc2c3c(nc4nncn24)CCC3)cc1	?	?
43	Cc1ccc(C2=NN(CCC(=O)NCCc3cccc(C)c3)C(=O)CC2)cc1	-19%	4%
44	CCOC(=O)c1cccc(NC(c2nnc(-c3ccccc3)o2)c2ccccc2F)c1 (stereo not given)	-15%	-29%
45	CCC(=O)N1CCc2cc(CNS(=O)(=O)c3cc(OC)ccc3OC)ccc21	-14%	8%
46	Cc1cccc(N2C(=O)CS(=O)(=O)C23C(=O)N(Cc2c(F)cccc2Cl)c2ccccc23)c1 (stereo not given)	?	0%
47	COc1ccc(CNC(=O)c2cnc3sc(N4CCOCC4)nn3c2=O)cc1	1%	-5%
48	CC1CN(C(=O)N2CCC(C(=O)N3CCN(c4ccccc4)CC3)CC2)c2cc(Cl)ccc2O1 (stereo not given)	?	-21%
49	CC(=O)N1CCCC1c1nc2ccccc2n1Cc1ccccc1 (stereo not given)	-6%	-22%
50	COc1ccc(CCNC(=O)c2ccc(Cn3c(SCc4ccccc4)nc4cccnc43)cc2)cc1	-30%	0%
51	CC(C)c1ccc(CNc2nc(-c3ccco3)nn2S(=O)(=O)c2ccc(F)cc2)cc1	-5%	?
52	CC(C)(C)C1CCc2c(sc(NC(=O)c3ccccc3F)c2C(=O)N2CCCCC2)C1 (stereo not given)	?	?
53	CCCN1CCN(CCCNC(=O)Cn2c(-c3cccs3)cc3cc(Cl)ccc32)CC1	?	11µM*
54	CCOC(=O)c1cnc2ccc(C)cc2c1Nc1ccc(N(CC)CC)cc1	25µM*	?
55	CCCCNS(=O)(=O)c1ccc(C)c(-c2nnc3c4ccccc4c(C)nn23)c1	-14%	?
56	COc1cccc2c1cc1c(=O)n(CC(=O)NCc3ccc(C)o3)nc(C)n12	-3%	-9%
57	Cc1ccc(NC(=O)c2ccccc2Br)c(C(=O)c2ccccc2)c1	-24%	-4%
58	O=C(Nc1ccc(F)cc1F)c1cc(CN2CCOCC2)on1	28%	-1%
59	COc1cc(NC(=O)CCn2nc(C)cc2C)cc(OC)c1OC	4%	-1%
60	CCc1ccc(C(=O)COC(=O)C(Cc2c[nH]c3ccccc23)NC(=O)c2ccc(CC)cc2)cc1 (stereo not given)	-10%	24%

Entries of single compounds as entered above:
CC(=O)N1CCCC1c1nc2ccccc2n1Cc1ccccc1 (stereo not given) is entered as HTT promoter inh = -6%; PMP22 txn = -22%
CCOC(=O)c1cnc2ccc(C)cc2c1Nc1ccc(N(CC)CC)cc1 is entered as HTT promoter inh = 25µM*; PMP22 txn = ?

Next section.
nr	molecule	HTT promoter inh	PMP22 txn
61	Cc1ccccc1Cn1c(C(=O)O)c(CNCc2cccc(F)c2)c2ccccc21	-2%	-1%
62	Cc1c(Cl)cccc1NC(=O)CSc1ncccc1C(=O)Oc1ccccc1Cl	2%	-131%
63	Cc1cc(C)cc(NC(=O)CSc2nc3c(cnn3-c3ccc(F)cc3)c(=O)[nH]2)c1	-11%	1%
64	CCn1c(=O)c(C(=O)Nc2ccc(C(C)=O)cc2)nc2ccccc21	34%[activator]	4%
65	COc1ccccc1CNC(=O)CCC1N=C2c3ccccc3N=C(SCC(N)=O)N2C1=O (stereo not given)	?	?
66	COc1ccccc1-c1cc(C(=O)NCc2ccccc2)c2c(-c3ccc(C)cc3)[nH]nc2n1	?	?
67	Cc1ccn2c(=O)cc(COc3ccc(NC(=O)COc4ccc(Cl)cc4)cc3)nc2c1	-5%	8%
68	COc1ccc(NC(=O)Cn2c(SCc3ccc(C)cc3)nc3cccnc32)cc1OC	?	?
69	Cc1ccccc1Cn1cc(S(=O)(=O)c2ccc(F)cc2)c(=O)c2cc3c(cc21)OCO3	-10%	-17%
70	CCCCNC(=O)c1ccc2c(c1)N=C(CC)c1ccccc1S2	?	12µM*
71	COc1ccc(NC(=O)CCCn2c(=O)c3cccn3c3ccccc32)c(OC)c1	22%	?
72	Cc1ccc(C)c(NC(=O)N2CCN3CCCCC3C2)c1 (stereo not given)	-11%	?
73	CCCc1ncc(C[n+]2ccccc2C)c(N)n1	8%	·
74	COc1ccc(-c2nc3n(n2)C(=O)CC(c2ccc(Cl)cc2)S3)cc1 (stereo not given)	-3%	17%
75	Cc1ccc2c(=O)cc(C(=O)Nc3ccc(S(=O)(=O)N4CCCCC4)cc3)oc2c1C	-23%	5%
76	Cc1ccc(/C=C/c2onc(C)c2S(=O)(=O)N2CCC(C(=O)N3CCN(c4ccccc4F)CC3)CC2)cc1	-9%	-17%
77	COc1ccc(OC)c(NC(=O)c2cc3c(n(-c4ccc(Cl)cc4)c2=O)CC(C)(C)CC3=O)c1	-13%	5%
78	COc1cccc(NC(=O)c2oc3ccccc3c2NC(=O)COc2ccccc2C)c1	21%	?
79	COc1ccc(NC(=O)C2=C(C)Nc3c(C(=O)Nc4ccc(C)cc4)cnn3C2c2cccc(Cl)c2)cc1 (stereo not given)	-9%	-4%
80	Fc1ccc(F)c(Nc2c3c(nc4ccc(Cl)cc24)CCC3)c1	?	19µM*
81	COc1ccc(-c2cn3c(n2)sc2cc(C(=O)NCCCc4ccccc4)ccc23)cc1	5%	-3%
82	CCCN1C(C(=O)c2ccccc2)=C(OC(=O)C(C)(C)C)c2ccccc2S1(=O)=O	?	?
83	CCOC(=O)c1c(C)[nH]c(C)c1S(=O)(=O)N1CCCC(C(=O)N2CCN(c3cccc(C)c3C)CC2)C1 (stereo not given)	?	?
84	COc1cc(C(=O)Nc2nonc2-c2ccc(C)c(C)c2)cc(OC)c1OC	?	-23%

Quoted from the listing.
Reading of compound 77 in PMP22 txn: 5%
Reading of compound 74 in PMP22 txn: 17%

The listing continues:
nr	molecule	HTT promoter inh	PMP22 txn
85	COC(=O)c1cc2sc(Cl)cc2n1CC(=O)Nc1cc(C)cc(C)c1	-15%	?
86	CCOC(=O)[C@@H](N)CCC(=O)N[C@@H](CSCc1ccccc1)C(=O)N[C@@H](C(=O)OCC)c1ccccc1	-22%	·
87	COc1ccccc1NC(=O)CSC1=Nc2ccccc2C2=NC(CCC(=O)NCCc3ccccc3)C(=O)N12 (stereo not given)	-18%	-53%
88	CCn1c2ccccc2c2cc(CN3CCN(Cc4ccc(Cl)cc4)CC3)ccc21	-26%	?
89	CCOC(=O)c1[nH]c(C)c(CCC(=O)NCc2ccc(N(C)C)cc2)c1C	-3%	-36%
90	CCCN(CCC)CCCNC(=O)c1cnn(-c2ccc(F)cc2)c1-n1cccc1	-27%	-23%
91	COc1cccc(NC(=O)C2CCN(S(=O)(=O)c3ccc4[nH]c5c(c4c3)CCCCC5)CC2)c1	?	-2%
92	O=C(C1CCN(S(=O)(=O)Cc2ccccc2)CC1)N1CCN(c2ccc(F)cc2)CC1	-30%	-13%
93	Cc1cc(C)cc(Nc2nc3ccccc3n3cnnc23)c1	-7%	-7%
94	Cc1ccc(NC(=O)Cn2c(=O)n(CCC(=O)NCc3ccccc3Cl)c(=O)c3ccccc32)cc1	?	?
95	O=C1COc2ccc(-c3cc(-c4ccc(Cl)cc4)c4c(n3)-c3ccccc3OC4)cc2N1	-12%	?

This is a random part of the collection; 2.4% or so of the library scored in one or more.
